Screening results as filed in PubChem.
VACV mCherry inh: qHTS for Stage-Specific Inhibitors of Vaccinia Orthopoxvirus: mCherry Reporter Primary qHTS | Vaccinia virus mCherry reporter infection, fluorescence; about a quarter of the inactives have no number | Potency, µM (doses to about 36.5 µM), for inactives: at the highest dose activity change, negative = inhibition, usual class: inhibitors | hit rate 0.63% among 310,000; active = well fitted inhibition curve with a large enough effect; inconclusive = small, poorly fitted or top-dose-only effect; inactive = no such curve, though single readings can be large or run the other way; tested in A549 cells; note: nearly all actives have a fitted effect of over 35% in size; inactives centre near -10
Vaccinia Venus: qHTS for Stage-Specific Inhibitors of Vaccinia Orthopoxvirus: Venus Reporter Primary qHTS; Vaccinia virus Venus reporter expression, fluorescence; Potency, µM (series often up to 36.5 µM), without a hit: at the top dose activity change, negative = inhibition, most hits filed as inhibitors; hit rate 0.46% among 330,000; AID 720580, 2013; active means well fitted inhibition curve with a large enough effect; inconclusive means small, poorly fitted or top-dose-only effect; inactive means no such curve, though single readings can be large or run the other way; tested in A549 cells; note: nearly all actives have a fitted effect of over 30% in size; inactives centre near -10
Numbers without * were called inactive; i = inactive; u = inconclusive; x = not tested or not shown; [ ] = remark or other dose. % is set by controls: 0 for no effect and ±100 for the full control effect; potency is the fitted concentration of half-maximal effect.

The first six compounds, to show the layout:
SMILES	VACV mCherry inh	Vaccinia Venus
CNc1cnn(-c2ccccc2)c(=O)c1Cl	-14.0%	-10.8%
Cc1cccc(Cn2nnc(C(=O)Nc3cc(C)ccc3C)c2N)c1	-11.6%	-5.8%
CC(CCN1CCC(CN2C(=S)NCC2Cc2ccccc2)CC1)c1ccccc1 (stereo not drawn)	-8.0%	-8.1%
O=C(COC(=O)c1cc([N+](=O)[O-])ccc1N1CCOCC1)NC1CCCCC1	-17.2%	-14.0%
CC(=O)c1ccc(NS(=O)(=O)c2ccc(Br)s2)cc1	-1.4%	-4.6%
Cc1nn(-c2ccccc2)c(C)c1CNC(=O)c1ccc(S(=O)(=O)NCc2ccco2)cc1	i	-25.5%

The list itself, from the first entry:
SMILES	VACV mCherry inh	Vaccinia Venus
CNc1cnn(-c2ccccc2)c(=O)c1Cl	-14.0%	-10.8%
Cc1cccc(Cn2nnc(C(=O)Nc3cc(C)ccc3C)c2N)c1	-11.6%	-5.8%
CC(CCN1CCC(CN2C(=S)NCC2Cc2ccccc2)CC1)c1ccccc1 (stereo not drawn)	-8.0%	-8.1%
O=C(COC(=O)c1cc([N+](=O)[O-])ccc1N1CCOCC1)NC1CCCCC1	-17.2%	-14.0%
CC(=O)c1ccc(NS(=O)(=O)c2ccc(Br)s2)cc1	-1.4%	-4.6%
Cc1nn(-c2ccccc2)c(C)c1CNC(=O)c1ccc(S(=O)(=O)NCc2ccco2)cc1	i	-25.5%
Cc1c(Cl)cnn1CC(=O)NC1C(=O)N2C(C(=O)O)=C(CSc3nnnn3C)CSC12 (stereo not drawn)	-0.6%	-7.6%
CCCCCCN1C[C@@H](n2cc(COC(=O)c3ccccc3)nn2)[C@H](O)C[C@@H]1c1ccccc1	-9.8%	-17.2%
CCOC(=O)c1c(C)[nH]c(C)c1C(=O)COC(=O)c1ccc(O)cc1	-1.4%	-1.5%
CC1CN(C(=O)CCC(=O)N2CCC3(CC2)OCCO3)c2cc(Cl)ccc2O1 (stereo not drawn)	-11.6%	-16.3%
Cc1ccc2c(CN3CCN(S(=O)(=O)/C=C/c4ccccc4)CC3)cc(=O)oc2c1	-10.0%	-10.8%
CS(=O)(=O)Nc1cccc(C2=NN(C(=O)c3ccccc3Cl)C(c3ccccc3O)C2)c1 (stereo not drawn)	-18.0%	-10.9%
CC1CC1C(=O)Nc1nc(-c2cccs2)c(-c2cccs2)s1 (stereo not drawn)	-7.2%	-16.1%
COc1ccc(CNC(=S)Nc2ccc(F)c(Cl)c2)cc1OC	-19.7%	-23.3%
Cc1ccc(NC(=O)Cn2c(=O)n(-c3ccc(CC(=O)NCC4CCCO4)cc3)c(=O)c3ccccc32)cc1 (stereo not drawn)	-8.1%	-2.4%
CC(C)CC1(C)N=C(c2ccccc2)C(=S)N1 (stereo not drawn)	i	-4.6%
COc1ccc(NC(=O)CCS(=O)(=O)c2nc(-c3cccs3)cc(C(F)(F)F)n2)cc1	-9.6%[7.34 µM]	-16.3%[7.34 µM]
O=C(CC(NS(=O)(=O)c1ccc(Cl)cc1)c1ccco1)N1CCc2ccccc21 (stereo not drawn)	-23.1%	-18.5%
CCCCN1CC(N2CCN(CCN(C)C)CC2)CS1(=O)=O (stereo not drawn)	-0.4%	-4.8%
CC(=O)Nc1ccc(NC(=O)C(C)OC(=O)/C=C/c2cn(-c3ccccc3)nc2-c2cccnc2)cc1 (stereo not drawn)	12.6µM*	u
CCCC(=O)NC(c1cccs1)c1cc(Cl)c2cccnc2c1O (stereo not drawn)	-19.6%	8.8%
O=C(NC1CCS(=O)(=O)C1)c1ccc(S(=O)(=O)NCC2CCCO2)cc1 (stereo not drawn)	x	-4.9%
c1ccc(C(c2cccs2)c2c[nH]c3ccccc23)cc1 (stereo not drawn)	-24.0%	-11.3%
CCc1nc2ccc(C(=O)NCc3cccc(Br)c3)cc2nc1CC	-8.2%	-7.8%
CCCCn1cc(C(=O)c2cc(Br)ccc2O)cc(C#N)c1=O	x	u
SMILES	VACV mCherry inh	Vaccinia Venus
COc1cccc(-c2nc(CS(=O)(=O)CC(=O)NCc3ccc(C)cc3)c(C)o2)c1	-23.7%	-17.1%
O=C(c1cn(-c2ccccc2)nc1-c1cccc([N+](=O)[O-])c1)N1CCCCC1	-6.3%	-9.0%
O=C(Nc1ccc(NC(=O)c2ccco2)cc1)c1cnccn1	u	u
O=C(O)c1cc(N/N=C/c2ccc(N3CCOCC3)s2)ccc1Cl	-3.0%	3.0%
COc1cccc(-n2c(=O)n(Cc3ccccc3)c(=O)c3[nH]cnc32)c1	-22.2%	-21.0%
CCOC(=O)c1c(NC(=S)N2CCN(C)CC2)sc(C)c1-c1ccccc1	-10.6%	-8.6%
CC1(C(=O)NS(=O)(=O)c2ccc(Cl)cc2)CCN1C(=O)c1ccccc1 (stereo not drawn)	1.9%	-8.0%
CCC(Sc1nc2nccnc2c(=O)n1Cc1ccc(OC)cc1)C(=O)NC1CCCCC1 (stereo not drawn)	-19.9%	-6.5%
c1ccc(CN=C2Nc3ccccc3CS2)nc1	i	-8.1%
CC1=C(C(=O)Nc2ccc(CC(=O)NCc3ccccc3C)cc2)SCCO1	i[7.34 µM]	-10.2%[7.34 µM]
COc1ccccc1NC(=O)c1sc2nc(-c3cc4ccccc4oc3=O)[nH]c(=O)c2c1C	-5.1%	-1.7%
COc1c(C(O)CC(C)C)ccc2c1C(=O)OCc1cc(C)cc(O)c1O2 (stereo not drawn)	-12.6%	-11.9%
FC(F)(F)c1cccc(NC(=S)NC2CCCC2)c1	-18.6%	-22.5%
CC(C)c1nc2sc3c(NCc4ccco4)ncnc3c2c2c1COC(C)(C)C2	-17.1%	u
CCCCn1c(SCc2nnc(-c3ccccc3)o2)nc2c1c(=O)n(C)c(=O)n2C	-13.9%	-8.5%
CC(=O)Nc1cccc(C(=O)Oc2cccc(C)c2)c1O	i	-18.5%
CCOC(=O)CN1C2=NCCCN2c2ccccc21	i	-1.3%
FC(F)(F)c1ccc(Cl)c(-n2c(-c3cc(-c4ccco4)[nH]n3)n[nH]c2=S)c1	-14.2%	-7.7%
CCOC(=O)N1CCC(NC(=O)c2cccs2)CC1	-13.2%	-10.2%
NS(=O)(=O)c1ccc(N2N=C(c3ccccc3)CC2c2ccccc2)cc1 (stereo not drawn)	u	-22.8%
Cc1ccc(N2CCN(c3nc4ccccc4n4nnnc34)CC2)c(C)c1	-11.4%	-15.2%
CNC(=O)c1cccc2cccc(Sc3ccccc3C(=O)O)c12	i	-6.0%
c1ccc(C2CCC(N3CCN(c4ccccc4)CC3)CC2)cc1 (stereo not drawn)	-24.1%	-6.2%
CCCC[C@H](CN[C@@H](CNC)[C@H](C)CC)NCCC12CCC(CC1)C2	22.4µM*	22.4µM*
COc1ccc(OC)c(S(=O)(=O)NCCc2sc(-c3ccc(C)cc3)nc2C)c1	-9.1%	1.7%
SMILES	VACV mCherry inh	Vaccinia Venus
CCOC(=O)Cc1csc(NC(=O)Cc2ccc(Cl)cc2)n1	-16.3%	-22.2%
COC(=O)c1ccccc1NC(=O)CSc1n[nH]c(-c2ccco2)n1	8.9%	-10.2%
CCCc1cc(-c2ccc(O)c(OCC)c2)c(C#N)c(N)n1	u	u
Cc1ccc(S(=O)(=O)N2CCCCC2)cc1C(=O)NC1CCCCC1	i	-4.8%
O=C(CSc1nnc(-c2ccc(Cl)cc2)o1)c1ccc([N+](=O)[O-])cc1	-15.3%	-4.2%
CCN(CC)S(=O)(=O)c1ccc(N2CCCC2)c(C(=O)Nc2ccc(OC)c(Cl)c2)c1	-6.5%	-5.4%
O=C(NNc1ncnc2c1cnn2-c1ccccc1)c1cccs1	-20.4%	-15.8%
CCOc1ccc2[nH]cc(C(=O)NCCCN3CCOCC3)c(=O)c2c1	-13.9%	-4.5%
COc1ccc(-c2cc(NC=O)c3ncc(-c4cccc(C(F)(F)F)c4)n3c2)cc1OC	-25.0%	-28.4%
COc1ccc(S(=O)(=O)NCCc2sc(C)nc2C)cc1F	-11.2%	0.3%
Cc1ccc(CC2CC(=O)N(c3nc4ccccc4n3C)C2=O)cc1 (stereo not drawn)	-5.5%	0.0%
CC1CN(S(=O)(=O)c2ccc(F)cc2)C(C)N1C(=O)N1CCOCC1 (stereo not drawn)	i	-7.9%
COCCCNC(=O)c1ccc(C2SCC(=O)N2Cc2ccco2)cc1 (stereo not drawn)	i	-0.8%
CCCC(CCC)C(=O)Nc1cccc(-c2cn3cccnc3n2)c1	-20.2%	-3.3%
Nc1nc2n(n1)C(c1cccs1)CC(c1ccccc1)N2 (stereo not drawn)	-14.7%	-10.2%
COCCCNc1ncnc2sc(C(=O)N3CCCCC3)c(C)c12	-8.7%	-0.1%
O=C(Nc1ccccc1)N1CCCN(c2ccc(C(F)(F)F)cc2[N+](=O)[O-])CC1	i	-9.8%
Cc1n[nH]c(C)c1S(=O)(=O)N(CC(=O)N1CCc2ccccc21)c1ccc(C(C)C)cc1	0.4%	u
COc1cccc(-c2nnc(SCC(N)=O)n2-c2ccc(Cl)cc2)c1	-19.1%	-6.3%
COc1cc(NS(=O)(=O)c2ccc(NC(=S)NC(=O)c3ccccc3)cc2)nc(OC)n1	-3.6%	-3.7%
CCN(C(=O)c1cc2c(=O)oc3ccc(C)cc3c2s1)c1ccccc1C	-2.3%	-2.7%
Cc1cc(NC(=O)CC(F)(F)F)n(-c2ccccc2)n1	i	-21.4%
C=CCOc1ccc(C(c2c(C)n(C)n(-c3ccccc3)c2=O)c2c(C)n(C)n(-c3ccccc3)c2=O)cc1	-1.7%	-1.5%
O=C(NCc1ccccc1Cl)c1c2c(nc3ccccc13)C(=O)N(C1CCCCC1)C2	-1.7%	-18.3%
COc1ccc(-n2cnc3cc(NCc4cccs4)ccc32)cc1	-26.5%	-22.0%

Not a retest: entries from further up.
SMILES	VACV mCherry inh	Vaccinia Venus
CNc1cnn(-c2ccccc2)c(=O)c1Cl	-14.0%	-10.8%
Cc1cccc(Cn2nnc(C(=O)Nc3cc(C)ccc3C)c2N)c1	-11.6%	-5.8%
CC(CCN1CCC(CN2C(=S)NCC2Cc2ccccc2)CC1)c1ccccc1 (stereo not drawn)	-8.0%	-8.1%
O=C(COC(=O)c1cc([N+](=O)[O-])ccc1N1CCOCC1)NC1CCCCC1	-17.2%	-14.0%

New compounds follow.
SMILES	VACV mCherry inh	Vaccinia Venus
CCC(=O)N1c2ccccc2NC2=C(C(=O)CCC2)C1c1ccccc1 (stereo not drawn)	i	-9.0%
O=C(N/N=C/c1ccco1)c1ccc(NC(=O)C2CC2)cc1	-1.5%	-6.0%
COc1ccc(CNC(=O)Cc2csc(NC(=O)Nc3ccccc3OC)n2)cc1	-7.6%	-20.6%
Cn1c(Br)nc2c1c(=O)n(Cc1ccccc1)c(=O)n2C	-10.2%	3.0%
COc1ccc(C2(O)CCN(C(=O)c3ccc4c(c3)OCO4)CC2)cc1	-9.9%	-3.4%
Nc1ccc(C(=O)c2ccc3c(c2)OCCO3)cc1N	-34.2%	-17.6%
CC(C)(C)NC(=O)NC(=O)CN1CCCCC1	6.0%	-3.2%
CCOc1ccc(C2/C(=C(\O)c3ccc4c(c3)OCCO4)C(=O)C(=O)N2CCN2CCOCC2)cc1OCC (stereo not drawn)	13.1%[7.34 µM]	0.0%[7.34 µM]
CSc1ccc(Cl)c(C(=O)NCC(C)C)c1	i	-5.2%
CCOc1ccc(-c2cnc(N)n2C)cc1	u	-10.8%
COc1ccccc1-c1cc(NC(C)=O)c2ncc(-c3ccc(S(C)(=O)=O)cc3)n2c1	33.0%[activator]	-4.5%
CCOC(=O)/C(C#N)=C\c1ccc(N2CCN(C/C=C/c3ccccc3)CC2)cc1	-14.1%	-4.5%
Cc1cc(OCC(=O)N2CCC(C(=O)O)(c3ccccc3)CC2)c2c(C)c(C)c(=O)oc2c1	-8.8%	-6.9%
COc1ccc(C2CC(c3ccc4ccccc4c3)=NN2C(=O)CSc2ncccn2)cc1 (stereo not drawn)	i	-20.2%
CCN1C(=O)[C@H]2[C@@H](c3ccc(-c4ccccc4)cc3)N3CCC[C@@]3(C(=O)OC)[C@H]2C1=O	i	-22.5%
C/C(=N\O)C1(C)N(O)C(C)(C)C(c2ccco2)=[N+]1[O-] (stereo not drawn)	-10.1%	10.3%
CC(=O)Nc1ccc(CN(C)c2c(C)nc3ccc(C(=O)NCCc4ccccn4)cn23)cc1	-19.0%	4.5%
O=C1CCc2cccc(O)c2N1	i	-11.3%
CCCCOc1ccc(CCN)cc1Cl	-17.3%	-6.1%
CC(=O)Nc1ccc(S(=O)(=O)N2CCN(Cc3ccccn3)CC2)cc1	-3.1%	-5.2%
O=C(CSc1nc2ncc(Cl)cc2[nH]1)NC1CCS(=O)(=O)C1 (stereo not drawn)	-1.4%	4.2%
Cc1ccc2[nH]c(=O)c(COC(=O)C3CCCCC3)cc2c1	-21.2%	-3.3%
Nc1nnc(SCC(=O)Nc2ccccc2N2CCOCC2)s1	-9.8%	-9.6%
O=c1nc(NCc2ccco2)sc2ncccc12	-14.4%	-3.7%
CN(C)C(=O)c1ccc(-c2cncnc2NCCN2CCOCC2)cc1	6.9%	2.3%
COc1ccc(CCNC(=O)c2cnn(-c3cccc(C)c3)c2C2CCNCC2)cc1OC	-3.9%	-2.9%
Cc1cc(C)nc(Sc2ccc3nnnn3n2)n1	0.501µM*	3.55µM*
Nn1c(SCC(=O)Nc2ccc3c(c2)OCCO3)nncc1=O	-23.4%	-8.6%
COc1ccc(Oc2ccc(/C=N/NC(=O)c3cccnc3)cc2[N+](=O)[O-])cc1	-23.9%	-14.6%
